# Compound activity from PubChem BioAssay.
# CSC inhib – cancer stem cell viability inhibitors, primary screen, luminescence; cancer stem cell-like cells viability; inhibition, % at 7.5 µM; 1.1% of 300,000 active;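 active = mean at 75% or more and at least half the replicates too; inconclusive = mean and replicates disagree; tested in HMLE shEcad cells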;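 also: 0% = median of negative and 100% = median of positive control wells; the first replicate is given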
# eIF4H inh – human eIF4H binding inhibitors, primary screen, translation initiation inhibitor project, biochemical, uHTS, fluorescence polarization; AID 2012, 2009; inhibition, % at 35 µM; 0.94% of 290,000 active; eIF4H fluorescence polarization binding assay;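 active = 50% or more with normal probe brightness, or confirmed in later tests; inconclusive = above 50% with abnormal brightness, or retests that disagree; inactive = below 50% or failed in later tests; about a fifth of its hits are not listed in these tables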;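 also: calls also rest on retests at 20 µM and on dose response follow-up; 0% = protein and probe with vehicle and 100% = probe without protein; strong numbers were not always called active; many hits fall short of the cut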
# PABP FP inh – PABP poly(A) RNA binding inhibitors, primary screen, biochemical, fluorescence polarization, uHTS; Polyadenylate-binding protein 1 (Homo sapiens), P11940; inhibition, % at 35 µM; AID 2014, 2009; 1% of 290,000 active;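 active = 50% or more with normal probe brightness, or confirmed in later tests; inconclusive = above 50% with abnormal brightness, or retests that disagree; inactive = below 50% or failed in later tests; about a fifth of its hits are not listed in these tables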;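 also: calls also rest on retests at 20 µM and on dose response follow-up; controls were probe without protein and protein plus probe with vehicle; some compounds called inactive have numbers as strong as hits; many hits fall short of the cut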
# Target sequence (P11940 whole entry, looked up): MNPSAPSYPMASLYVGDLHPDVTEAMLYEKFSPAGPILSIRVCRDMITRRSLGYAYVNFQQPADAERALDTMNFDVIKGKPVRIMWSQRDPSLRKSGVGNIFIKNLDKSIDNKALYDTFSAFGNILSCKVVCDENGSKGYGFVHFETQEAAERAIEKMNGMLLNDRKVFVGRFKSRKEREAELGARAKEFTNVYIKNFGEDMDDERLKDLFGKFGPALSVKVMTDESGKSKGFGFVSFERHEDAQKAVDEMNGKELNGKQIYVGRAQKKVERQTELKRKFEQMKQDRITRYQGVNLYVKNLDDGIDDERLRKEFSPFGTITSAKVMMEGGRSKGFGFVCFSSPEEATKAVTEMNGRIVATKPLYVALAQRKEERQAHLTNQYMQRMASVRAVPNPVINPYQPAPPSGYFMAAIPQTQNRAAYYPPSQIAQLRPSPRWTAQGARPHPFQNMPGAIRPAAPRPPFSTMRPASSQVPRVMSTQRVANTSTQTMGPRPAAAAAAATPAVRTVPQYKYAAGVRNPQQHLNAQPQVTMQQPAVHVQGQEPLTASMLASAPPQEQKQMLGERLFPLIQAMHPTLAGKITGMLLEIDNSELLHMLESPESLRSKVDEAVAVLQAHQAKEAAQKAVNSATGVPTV
# MT1-MMP act inh – blockers of MT1-MMP proenzyme processing, primary screen, HT1080 RFP-PRO-GFP cells, GFP/RFP fluorescence. Matrix metalloproteinase-14 (Homo sapiens), P50281. GFP/RFP ratio fluorescence, overnight; percent of plate control window, DMSO zero. GFP/RFP ratio change, % at 20 µM. 0.061% of 360,000 active. AID 651647, 2012;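 active = GFP/RFP ratio change of at least 30% with cell ATP level not reduced by more than half and red fluorescence within 50% of control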; also: strong numbers were not always called active
#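 Material – HT1080 RFP-PRO-GFP cells · Control set – DMSO wells and RFP-L50D-GFP cells · Incubation – overnight cell settling, then overnight compound exposure, 37 °C, 5% CO2 · Compound dosing – single-point 20 µM compound, 1% DMSO · Read-out – GFP/RFP fluorescence ratio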
# Rce1 inhib – yeast Rce1p protease inhibitors, primary screen, biochemical, fluorescence, cell-free homogeneous; CAAX prenyl protease 2 (Saccharomyces cerevisiae (strain ATCC 204508 / S288c)), Q03530; yeast membranes, quenched prenylated peptide cleavage fluorescence; calls only; 0.27% of 290,000 active; AID 2563, 2010;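 active = fall in fluorescence gain of 50% or more versus controls, with final raw signal at or below 3038400; inconclusive = same 50% fall but final raw signal above 3038400; inactive = fall in fluorescence gain under 50%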;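 also: plate controls were neutral control wells for no effect and wells lacking membranes for full effect; tested at 10 µM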
# Env fusion inh – inhibitors of HIV-1 Env-driven cell-cell fusion, primary screen, HeLa-JRFL effector, CEM21 target cells, luciferase. 1.1% of 360,000 active. inhibition, % at 12.3 µM;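 active = mean replicate inhibition score of at least 50 and every replicate individually at or above 50; inconclusive = only one of the two criteria met; inactive = mean below 50 and not all replicates reaching 50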;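 also: 0% = plate neutral controls and 100% = maraviroc near 300 nM; one replicate is shown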
# UUG fidelity – modulators of yeast start codon fidelity, primary screen, whole organism, S. cerevisiae, single point, plate reader; S. cerevisiae UUG-firefly luciferase reporter, luminescence/redox ratio; activity score, % at 18.7 µM; 0.13% of 350,000 active; AID 602363, 2012;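 active = replicate mean at a twofold rise or more, about +100% in these data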;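 also: firefly luciferase made from a UUG start codon reports start codon fidelity; reporter light over untreated wells divided by growth signal over untreated wells; some hits fall short of that in this replicate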
# eIF4H inh retest – also measured in eIF4H inh; calls as there; inhibition, %; compound at 20 µM; confirmation average;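 mean of two retest wells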
# PABP FP inh retest – recorded beside PABP FP inh, whose call it bears; inhibition, %; compound at 20 µM; confirmation repeats;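 mean of two retest wells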
# MT1-MMP act inh RFP – also measured in MT1-MMP act inh; calls as there; RFP signal change, %; measured here: RFP expression control read;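 0 = vehicle wells; hits needed this value within 50% of zero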
# * hit, by the source's call; i = inactive; ? = inconclusive; / = no result given. Hits appear at their usual frequency. Share with any hit: about 2.9%.
SMILES,CSC inhib,eIF4H inh,PABP FP inh,MT1-MMP act inh,MT1-MMP act inh RFP,Rce1 inhib,Env fusion inh,UUG fidelity,others
CCCCN1C(C(=O)Nc2ncccn2)=C(O)c2ccccc2S1(=O)=O,-11,-2,5,-3,5,i,16,-26,
S=c1[nH]nc(-c2cccnc2)n1/N=C/c1ccco1,-6,9,-5,0,5,i,13,/,
Cc1onc(-c2ccccc2Cl)c1C(=O)Nc1nnc(-c2ccc(Cl)cc2Cl)s1,38,-6,-16,4,-5,i,/,8,
CCC(CO)Oc1cc(NC(=O)Cc2ccccc2)c2ncn(C(C)C)c2c1 (stereo not given),/,/,/,5,3,/,-15,-10,
NC(=O)c1nsc(C(=O)N(CC(=O)NCc2ccc3c(c2)OCO3)C2CCCC2)c1N,4,-3,1,-1,4,/,/,6,
Cc1no[n+]([O-])c1COc1cccc(/C=N/Nc2nncn2N)c1,2,-3,-2,-4,2,i,50,/,
Cc1ccc(CNc2ncnc3[nH]ncc23)cc1,/,/,/,-1,-9,/,9,-15,
COc1ccc(C(=O)NC(=S)NC2CCSC2=O)cc1 (stereo not given),/,-3,0,-3,1,i,/,-14,
COc1ccc(C2OCC(C)(C)CO2)cc1OC,/,/,/,-1,-3,/,8,-15,
COc1ccc2cc(CN(CC3COCCO3)S(=O)(=O)c3ccc(Cl)cc3)c(=O)[nH]c2c1 (stereo not given),15,-4,-6,0,4,i,/,-32,
Cc1nc(CC(C)C)cc(C(=O)N2CCCC(Nc3ccc(C)c(C)c3)C2)n1 (stereo not given),-5,-11,-2,1,4,i,/,2,
O=C1CCC(C(=O)Nc2cccc(Oc3ccccc3)c2)=NN1,6,-3,-4,3,-2,i,1,-13,
Cc1cccc(OCC(=O)N(Cc2ccco2)c2c(N)n(Cc3ccccc3)c(=O)[nH]c2=O)c1,/,/,/,-3,2,/,3,-11,
c1ccc(CO/N=C(\c2ccc(C3CC3)nc2)C2CC2)cc1,12,8,-2,2,0,i,16,-7,
Nc1n[nH]c(-c2ccc(Br)cc2)c1Cl,14,-3,-10,0,-6,i,/,/,
CC1ON=C(c2cccc3ccccc23)N(C)C1=O (stereo not given),/,/,/,4,5,/,-36,-24,
C/C(=N/O)c1c(O)c(C)c(-c2ccccc2)n(-c2ccccc2)c1=O,-4,1,1,5,7,i,-15,-29,
O=[N+]([O-])/C=C1\CCCCCN1,-10,2,-11,-1,4,i,-2,-3,
CC1=NN(c2ccc(C(=O)OC(C)C)cc2)C(=O)/C1=C\C=C\c1ccco1,1,43,3,1,0,i,-23,-15,
CCCCC(=O)N(C)c1c(C)nc2ccc(C(=O)N(C)CCN(C)C)cn12,/,/,/,0,5,/,-3,-3,
CN1CCc2c(sc(N)c2C(=O)c2ccc(Cl)cc2)C1,/,65,13,-11,4,i,2,-6,eIF4H inh retest=-2;PABP FP inh retest=10
CCN(C(=O)Cn1cnc2c1c(=O)n(C)c(=O)n2C)C1CCCCC1,-13,/,/,3,5,/,/,5,
CCOc1ncccc1C(=O)N(CC)CC(=O)Nc1ccc(NC(C)=O)cc1,17,0,4,5,8,i,20,-14,
COc1ccc(C2=NN(C(=O)CSc3ncccn3)C(c3ccc(C)cc3)C2)cc1 (stereo not given),-12,3,40,1,-1,i,9,/,
CN(C(=O)c1ccc2nccnc2c1)C1CCCCC1,-21,-8,-8,3,6,i,-12,-7,

# Next section.
SMILES,CSC inhib,eIF4H inh,PABP FP inh,MT1-MMP act inh,MT1-MMP act inh RFP,Rce1 inhib,Env fusion inh,UUG fidelity,others
Cc1cc(C)c2c(n1)nn1c(NCCCN(C)C)cc(C)nc21,7,1,-11,10,4,?,-43,-23,
CCN(CC(=O)Nc1c(F)cccc1F)C(=O)c1ccc(C2SCCS2)cc1,18,/,/,1,0,i,-7,-20,
COc1ccc(/C(C)=N/Nc2nc3ccccc3nc2C)cc1,35,17,4,2,-6,i,-58,/,
COc1ccc(CNC(=O)C2=C(C)C(=O)OC23CCC(C)CC3)cc1 (stereo not given),-7,12,3,0,-12,i,23,13,
COC(=O)c1ccc(COC(=O)CNC(=O)CNC(=O)c2ccc(OC)cc2)cc1,4,/,/,0,1,i,-9,/,
CCCCN1C2CCCC1CC(NC(=O)c1cccc(OC)c1)C2 (stereo not given),-11,1,4,0,4,i,-4,-14,
CCOc1cc(C2NC(=O)CCC2[N+](=O)[O-])cc(Br)c1OCC (stereo not given),-12,-7,7,-2,0,i,-6,-9,
COc1cc(NC(=O)COc2ccc(F)cc2)nc(OC)n1,/,-1,-3,6,2,i,/,/,
CCCn1c(=O)n(C)c(=O)c2c(SC(C)C(=O)NCC3CCCO3)nc(CC(C)C)nc21 (stereo not given),3,/,/,-2,-7,i,0,-9,
Cc1ccc(NS(=O)(=O)c2ccc3c(c2)N(C)CCO3)cc1,27,-1,-3,4,-6,i,4,-14,
O=C(NCc1ccccn1)c1ccc(COc2ccc(Cl)cc2)o1,3,4,15,-1,-6,i,/,4,
OC1(c2cccnc2)CCN(Cc2nnnn2C2CCCCC2)CC1,-7,4,3,8,1,i,-21,-6,
Cc1ccc(-n2nc(C)c3c(C)onc3c2=O)cc1,3,-12,-13,0,1,i,-58,/,
CCCCNc1c(-c2cccc(-c3ccc(OC)cc3)c2)nc2cc(C)ccn12,/,/,/,16,-23,/,23,-4,
CCC(C)C(=O)Nc1nnc(SCC(=O)NC(C)(C)C)s1 (stereo not given),-9,8,2,3,1,i,-8,/,
c1ccc2oc(-c3[nH]ncc3CN(Cc3ccncc3)CC3CCCO3)cc2c1 (stereo not given),-8,-7,5,-4,-1,/,-2,-7,
CC(NC(=O)c1ccccc1NC(=O)c1ccco1)c1ccccc1 (stereo not given),-25,-4,-8,1,2,i,/,/,
Cc1[nH]c2nc3ccccc3n2c(=O)c1CCC(C)C,-10,-3,10,1,4,i,/,-3,
COC(=O)c1cc(=O)n(Cc2ccc(OC)cc2)c(=NCc2ccc(OC)cc2)s1,5,-8,-8,-2,-3,/,2,-11,
CC1CCCN(C(=O)COc2ccc(NC(=O)c3cccs3)cc2)C1 (stereo not given),-12,7,-11,0,2,i,-3,/,
Cc1cc(N2CCC(C)CC2)nc(NCc2ccccc2)n1,37,-3,7,-5,-12,i,20,-17,
C/C(=N\NC(=O)c1ccccc1O)C1C(=O)c2ccccc2C1=O,48,12,25,-1,-13,i,-96,-10,
COc1ccc2cc(C(=O)O)ccc2c1,-11,5,8,-1,2,i,-41,-25,
CC1CCCN(C(=O)c2cccc(S(=O)(=O)N3CCCc4ccccc43)c2)C1 (stereo not given),1,/,/,0,-9,i,24,-20,
CCn1c(SCC(=O)Nc2nccs2)nnc1-c1ccc(C)cc1,-8,-6,-13,11,-3,i,-35,-15,

# Looked up by structure from above, 3 records:
SMILES,CSC inhib,eIF4H inh,PABP FP inh,MT1-MMP act inh,MT1-MMP act inh RFP,Rce1 inhib,Env fusion inh,UUG fidelity,others
Cc1[nH]c2nc3ccccc3n2c(=O)c1CCC(C)C,-10,-3,10,1,4,i,/,-3,
COc1ccc(/C(C)=N/Nc2nc3ccccc3nc2C)cc1,35,17,4,2,-6,i,-58,/,
CC1CCCN(C(=O)c2cccc(S(=O)(=O)N3CCCc4ccccc43)c2)C1 (stereo not given),1,/,/,0,-9,i,24,-20,

# Further entries follow:
SMILES,CSC inhib,eIF4H inh,PABP FP inh,MT1-MMP act inh,MT1-MMP act inh RFP,Rce1 inhib,Env fusion inh,UUG fidelity,others
O=C(NCC1COc2ccccc2O1)c1cccs1 (stereo not given),13,3,5,-6,3,i,-5,-15,
CC(=O)c1cnc(SCc2ccc(Cl)cc2)nc1C,1,-8,-4,-3,-3,i,-7,/,
Cc1cccc(N(CC(O)CN2CCOCC2)S(=O)(=O)c2ccccc2)c1 (stereo not given),-9,-8,-8,4,7,i,-1,-1,
CCC(C(=O)Nc1c[nH]c(=O)[nH]c1=O)c1ccccc1 (stereo not given),-12,8,4,-1,1,i,/,/,
CC(C)Nc1nc(NC(C)C)nc(SCC(N)=O)n1,3,-15,0,0,3,i,20,1,
COc1ccccc1C1CC(c2ccc(Cl)cc2)Nc2ncnn21 (stereo not given),-3,5,-14,1,-5,i,/,-18,
O=C(NC(c1ccccc1)c1ccc2ccccc2n1)C1CCN(CCOc2ccc(Cl)cc2)CC1 (stereo not given),/,/,/,-4,-9,/,30,28,
COC(=O)c1cc(S(=O)(=O)N2CCC(c3cc(OC)ccc3OC)C2)c[nH]1 (stereo not given),-14,-21,5,-6,-23,i,7,/,
COc1ccc(CNC(=O)CCCC2=NS(=O)(=O)c3ccccc3N2)cc1,-1,/,/,-1,-2,i,-6,1,
CCN(CC)C(=S)Nc1ccc(C(=O)OC)cc1,-7,-3,-8,1,0,i,9,/,
CC(=N)c1c(O)c2ccccc2oc1=O,7,-5,-1,1,2,i,-23,/,
COc1cc(/C=C/C(=O)O)ccc1O,3,/,/,2,4,i,/,-17,
O=C1/C(=C/c2cccc(Cl)c2)SC(=S)N1CCC(=O)N1CCCCC1CCO (stereo not given),5,-6,2,0,1,i,0,-13,
CCCS(=O)(=O)N1CCCC(C(=O)NCCc2ccc(Cl)cc2)C1 (stereo not given),4,-6,4,-4,0,i,/,-8,
O=C1c2ccccc2C(=O)N1CCCc1nc(-c2ccccn2)no1,-4,-2,-6,5,2,i,-27,-30,
N#CCOC(=O)[C@H](Cc1c[nH]c2ccccc12)NS(=O)(=O)c1ccc(Cl)cc1,7,-10,17,0,8,i,-5,-9,
CN(C)C(=O)c1cccc(-c2cccc3nccn23)c1,/,/,/,-8,-3,/,i,-17,
Cc1cc2c(ccc3[nH]onc32)n1,-37,?,?,-18,3,i,-61,-18,
CC1CCCC(NC(=O)COC(=O)C2=COCCO2)C1C (stereo not given),/,/,/,4,-2,/,-4,-6,
CCOc1ccc(NC(=O)c2ccc(NC(=O)COC(=O)c3ccc(NC(=O)CC#N)cc3)cc2)cc1,/,/,/,-4,-3,i,-59,-2,
CCOc1ccc(NCc2cc3cc(OC)ccc3[nH]c2=O)cc1,13,35*,57*,-4,4,i,-21,/,eIF4H inh retest=75*;PABP FP inh retest=60*
Fc1cccc2sc(Nc3nc4cc5c(cc4s3)OCCO5)nc12,47,15,16,3,2,i,/,/,
O=C(CCCc1ccccc1)NCCCN1CCOCC1,-13,3,3,7,7,i,3,-20,
CCOc1cc(CNCc2ccccc2)ccc1OCC(=O)NC1CCCCC1,-6,-4,4,0,0,i,-9,-1,
COc1cc(OC)cc(C(=O)Nc2ccc3c(c2)CCCN3C(=O)c2cccs2)c1,25,-4,5,11,-1,i,5,-14,
Cc1cccc(NC(=O)CSc2nnc(-c3ccc(S(=O)(=O)N4CCOCC4)cc3)n2C)c1,6,1,-8,5,0,i,7,-14,
CCN(CC(=O)Nc1ccccc1C(F)(F)F)C(=O)c1cc(S(=O)(=O)N(C)C)ccc1N1CCCC1,-5,1,6,-1,2,i,/,-1,
CC(=O)Nc1ccc(S(=O)(=O)NCCc2cc3ccc(C)c(C)c3[nH]c2=O)cc1,-16,-8,2,0,-2,i,/,-7,
O=C(NCC1CCCO1)c1ccccc1NS(=O)(=O)c1ccc(Br)s1 (stereo not given),/,/,/,3,3,/,-9,-6,
